Screens deposited in PubChem by National Center for Advancing Translational Sciences (NCATS).
VACV mCherry inh – qHTS for Stage-Specific Inhibitors of Vaccinia Orthopoxvirus: mCherry Reporter Primary qHTS; 310,000 tested, 0.63% active; Potency, µM (doses to about 36.5 µM), for the others: at the highest dose activity change, negative = inhibition, hits mostly inhibitors; Vaccinia virus mCherry reporter infection, fluorescence; about a quarter of the inactives have no number; active = well fitted inhibition curve with a large enough effect; inconclusive = small, poorly fitted or top-dose-only effect; inactive = no such curve, though single readings can be large or run the other way; tested in A549 cells; note: nearly all actives have a fitted effect of over 35% in size; inactives centre near -10
Vaccinia Venus – qHTS for Stage-Specific Inhibitors of Vaccinia Orthopoxvirus: Venus Reporter Primary qHTS; Vaccinia virus Venus reporter expression, fluorescence; Potency, µM (series often up to 36.5 µM), for inactives: at the top dose activity change, negative = inhibition, usual class: inhibitors; 330,000 tested, 0.46% active; active means well fitted inhibition curve with a large enough effect; inconclusive means small, poorly fitted or top-dose-only effect; inactive means no such curve, though single readings can be large or run the other way; tested in A549 cells; note: nearly all actives have a fitted effect of over 30% in size; inactives centre near -10
* marks the source's active call; other numbers are inactive results; i = inactive; ? = inconclusive; / = not tested or not shown; [ ] = dose if it differs, or a comment. % is set by controls: 0 for no effect and ±100 for the full control effect; potency is the fitted concentration of half-maximal effect.

SMILES	VACV mCherry inh	Vaccinia Venus
Cc1ccccc1-c1nc(CS(=O)(=O)CC(=O)N2CCN(C)CC2)c(C)o1	-18.1%	-8.9%
COc1ccc(Cl)cc1NS(=O)(=O)c1cc(Br)cnc1N	-8.2%	-7.0%
Cc1[nH]c(=O)[nH]c(=O)c1S(=O)(=O)N1CCCC(C(=O)N2CCN(c3cccc(C(F)(F)F)c3)CC2)C1 (stereo not drawn)	-2.7%	3.9%
O=C1CN(C(=O)CC2C(=O)NCCN2Cc2ccccc2C(F)(F)F)CCN1 (stereo not drawn)	i	-9.5%
CCSc1nnc(N2C(=O)CC(c3ccsc3)C3=C2CC(C)(C)CC3=O)s1 (stereo not drawn)	-5.8%	-4.4%
O=C(NCc1ccccc1Cl)c1cnccc1C(F)(F)F	-8.9%	-3.5%
CC(C)=C1C(=O)NN(c2ccc(C)c(Cl)c2)C1=O	-17.1%	-9.2%
C#Cc1cccc(Nc2nc(NCc3ccccc3OC)nc3ccsc23)c1	?	?
Cc1nn(C)c(C)c1NC(=O)CC12CC3CC(CC(C3)C1)C2	-7.4%	-22.9%
CCc1ccccc1NC(=O)C1CCCN(S(=O)(=O)c2ccc3c(c2)CC(C)N3C(C)=O)C1 (stereo not drawn)	-4.9%	-9.3%
COc1cccc(C(=O)N2CCN(C3CCN(Cc4ccccc4)CC3)CC2)c1OC	-5.5%	-9.8%
CC(OC(=O)/C(C#N)=C/c1ccc(N(C)C)cc1)C(=O)N(C)c1ccccc1 (stereo not drawn)	-10.0%	44.1%[activator]
COC(=O)[C@H](Cc1ccccc1)NC(=O)O[C@H]1C(=O)c2ccc(OC)cc2O[C@@H]1c1ccc2c(c1)OCO2	i	-7.8%
OCCNCc1ccc(OCc2ccc(Cl)cc2Cl)cc1	-21.9%	-12.5%
CCOC(=O)/C(=C/c1c2ccccc2cc2ccccc12)NC(=O)c1ccccc1	-18.3%[1.46 µM]	-24.8%
CCOc1ccc(C(=O)c2ccncc2)cc1	-28.2%	-1.0%
Fc1ccc(-c2nnc(N3CCOCC3)c3ccccc23)cc1F	-3.8%	-8.7%
COc1cc(C(=O)Nc2ccc(Br)cc2C(=O)c2ccccc2Cl)cc(OC)c1OC	-10.6%	-4.0%
COc1ccccc1NC(=S)NNC(=O)c1nn(C)c(C)c1Br	i	-12.7%
O=C(Nc1nnc(-c2ccccc2)s1)C1CCCN(C(=O)c2ccoc2)C1 (stereo not drawn)	-7.5%	-14.3%
CSc1ccc(-c2ccco2)nn1	-9.3%	3.8%
CN(C)CCCOc1ccc(-c2cccc3nncn23)cn1	-11.0%	3.3%
Cc1occc1C(=O)NNC(=O)c1nn(C)c(=O)c2ccccc12	i	-9.9%
CCOC(=O)CC1C(=O)NCCN1C(=O)c1ccc(Cl)cc1Cl (stereo not drawn)	-22.1%	-5.6%
COc1ccc(C2C(C#N)=C(N)Oc3n[nH]c(-c4ccccn4)c32)c(OC)c1OC (stereo not drawn)	/	-12.4%
Cc1noc(C)c1S(=O)(=O)N(C)C[C@H]1Oc2c(NS(=O)(=O)c3cn(C)cn3)cccc2C(=O)N([C@H](C)CO)C[C@@H]1C	-11.2%	-10.3%
CCOc1ccc(NC(=O)CC2C(=O)N(c3cccc(OC)c3)C(=O)N2CCOC)cc1 (stereo not drawn)	-14.6%[7.34 µM]	5.1%[7.34 µM]
COC(=O)[C@@H]1C[C@H]1[C@@H](NC(=O)c1cc(C)on1)c1ccccc1	i	-4.4%
COc1cc(O)c(C(CC(=O)N2CCN(c3ccccc3)CC2)c2cc(OC)c(OC)c(OC)c2)c(OC)c1 (stereo not drawn)	-4.9%	-19.8%
O=C(N/N=C/C=C\c1ccco1)c1cccnc1	1.6%	9.1%
CC(C)NC(=O)NC(=O)COc1c(F)c(F)cc(F)c1F	/	?
CC1CCCN(C(=O)Cn2nnc(-c3ccc(F)cc3)n2)C1 (stereo not drawn)	-5.6%	-16.4%
Cc1cccc(-c2ccc3[nH]c4c(c3c2)CCN2C[C@H]3[C@H](C)ON(C)[C@H]3C[C@@H]42)c1	-27.8%	?
Cc1cc(OCc2cc(C(=O)N(C)C3CCOC3)no2)cc(C)c1Cl (stereo not drawn)	-8.9%	-19.3%
COc1ccccc1/C(O)=C(\C#N)c1nc2ccccc2[nH]1	9.8%	2.7%
COc1ccccc1-c1nnc(SCC(=O)c2ccc(F)cc2)n1-c1ccccc1	-10.6%	-3.4%
Cc1cc(=O)[nH]c(N2CCCCC2)n1	-10.6%	-0.9%
Cc1csc(/C(C#N)=N/O)n1	-6.1%	-1.9%
CCOC(=O)C1=C(COC(=O)/C=C/c2ccco2)NC(=O)NC1C (stereo not drawn)	-10.0%	-10.5%
Cc1cc(S(=O)(=O)Nc2ccc(C(=O)NCCCN3CCCC3=O)cc2)ccc1F	-13.7%	-12.7%
CCN(CC)S(=O)(=O)c1ccc(NC(=O)c2ccc3c(=O)n4c(nc3c2)CCCCC4)cc1	?	?
N/C(=N\OCC(=O)Nc1ccc(F)c(Cl)c1)c1ccccc1	-13.5%	-12.6%
Cc1nc(NCc2c(F)cccc2F)sc1-c1ccn(CCN2CCOCC2)n1	-10.2%	-3.3%
Cc1cc(C)c(C#N)c(SCc2c(F)cccc2[N+](=O)[O-])n1	-0.8%	-10.5%
CC1CCCCC1NC(=S)Nc1ccc(SC(F)F)cc1 (stereo not drawn)	/	?
O=S(=O)(N/N=C\C=C\c1ccccc1)c1ccccc1	i	-5.1%
CCNc1nc(=S)nc(NC(C)C)[nH]1	i	-4.5%
Cc1ccc(C)c(NC(=O)C(NCC(C)(C)N2CCOCC2)c2ccccc2)c1 (stereo not drawn)	-8.3%	-9.5%
CCOC(=O)C1=NN(C(C)=O)C2(CC(=O)N(c3ccc(C)c(C)c3)C2=O)C1 (stereo not drawn)	-3.5%	1.4%
Cc1cc(C)nc(NNS(=O)(=O)c2c(C)cc(C(C)(C)C)cc2C)n1	-8.6%	2.5%
COc1cc(OC)c(OC)cc1CN(C)C(c1ccccc1)c1nnnn1-c1ccccc1C (stereo not drawn)	/	-31.9%
CCOC(=O)[C@]12Cc3c(cc(OC)c(OC)c3OC)[C@H]1N(C(C)C)C(=O)c1ccccc12	-4.0%	-8.7%
Cc1ccc(OCCN2CCN(c3nc(NCc4ccco4)c4ccccc4n3)CC2)cc1	?	?
Clc1cccc(-c2nc3nc4ccccc4nc3n2Cc2ccco2)c1	-13.1%	-10.3%
COC(=O)[C@@H]1[C@@H](C)N(Cc2ccccc2)C(=O)N[C@H]1c1ccccc1	-13.3%	-10.3%
Cc1cc(C(=O)Nc2cccc(-c3nc(CNC(=O)c4sc(C)nc4C)c(C)o3)c2)c(C)o1	i	-18.5%
O=C(NC1C2CC3CC(C2)CC1C3)c1ccc(Br)o1 (stereo not drawn)	11.3%	-4.7%
CN(CCc1ccccn1)C(=O)CCC1CCCN(C(=O)c2n[nH]c3c2CCCC3)C1 (stereo not drawn)	-1.2%	-13.1%
CC(=O)Nc1ccc(SCC(=O)N2CCN(S(=O)(=O)c3ccccc3)CC2)cc1	i	-8.6%
CC(=O)c1cccc(NC(=O)COc2ccc(S(=O)(=O)N3CCCCC3)cc2)c1	/	-26.4%
(continued)
SMILES	VACV mCherry inh	Vaccinia Venus
c1ccc(CCn2c3ccccc3c3nnc(SCc4ccc5nonc5c4)nc32)cc1	-20.2%	6.7%
O=C(CCC(=O)Nc1ccccc1Cl)N/N=C1\CCCc2ccccc21	-16.5%	0.0%
O=[N+]([O-])c1cccc(S(=O)(=O)N/N=C/c2ccc(O)cc2)c1	i	3.9%
CCCCn1cnc2c(sc3nc4c(cc32)CSC(C)(C)C4)c1=O	-14.1%	-13.9%
Cc1ccc(C(=O)CSc2nn3c(=O)c(C(C)(C)C)nnc3s2)cc1	-6.9%	1.9%
COc1ccc(N(C(=O)c2ccn[nH]2)C(C(=O)NC(C)(C)C)c2ccc(F)cc2)cc1 (stereo not drawn)	-11.6%	-7.8%
O=C1C(=O)N(c2ccccc2)C(c2ccccc2)C1c1ccccc1 (stereo not drawn)	-21.2%	-28.5%
COc1ccc(-n2nnnc2SCc2nc(N)nc(N3CCOCC3)n2)cc1	/	-13.2%
Cc1ccc(S(=O)(=O)N(C)C)cc1NC(=O)C(C)OC(=O)/C=C/c1cccs1 (stereo not drawn)	-5.5%	0.3%
Cc1cccc(-c2nc(Nc3ccc(N4CCOCC4)cc3)c3ccccc3n2)c1	-16.4%	-23.4%
CCOc1ccc(Br)cc1S(=O)(=O)Nc1ncn[nH]1	-13.3%	-1.9%
Cc1ccsc1C(=O)OCC(=O)N1CCc2ccccc2C1	-8.9%	-1.3%
CCCNC(=O)CC(NS(=O)(=O)c1ccc(NC(C)=O)cc1)C(C)C (stereo not drawn)	i	-13.1%
COc1ccc(CNC(=O)C2CCN(C(=O)c3cnn(-c4ccccc4)c3-n3cccc3)CC2)cc1	?	?
Cc1cccc(C)c1NC(=O)CN(C)CC(=O)N1CC(=O)Nc2ccccc21	-12.5%	-5.4%
Cc1ccc(-n2nc(C)c3c2OC(N)=C(C#N)C3c2cccs2)cc1 (stereo not drawn)	-9.4%	2.0%
CCOc1ccc2nc(N3CCN(C(=O)c4ccco4)CC3)sc2c1	-14.2%	-19.4%
COc1ccc(C(=O)N2c3nc(-c4ccco4)nn3C3(CCCCC3)[C@@H]3CCCC[C@@H]32)cc1OC	-3.6%	-3.0%
COc1ccc(CCNC(=O)C23CCC(C)(C(=O)C2=O)C3(C)C)cc1OC (stereo not drawn)	-0.1%	-8.8%
COc1cc(/C=N\NC(=O)c2cccnc2)ccc1OC(=O)c1ccccc1Cl	i	-5.8%
COc1ccccc1N1CCN(/N=C/c2cccc(OC)c2O)CC1	-2.8%	1.4%
CC(C)c1ccccc1-n1cc[nH]c1=S	-11.8%	-10.4%
O=c1oc(-c2cccs2)nc2ccc(Cl)cc12	-13.8%	-8.3%
CC(=O)CCc1ccc(OCCCCn2cncn2)cc1	-6.7%	-2.4%
c1ccc(-c2cc3ncccc3cn2)cc1	0.6%	4.1%
NS(=O)(=O)c1ccc(CCNC(=O)C(=O)c2cn(CC(=O)N3CCCC3)c3ccccc23)cc1	-12.8%	-5.6%
COc1cc(C)c(CN2C[C@H](Sc3ccccn3)C[C@H]2C(=O)N(C)C)cc1C	-0.1%	-9.6%
Cc1cccc(NC(=O)c2cc3c([nH]c4ccccc43)c(C)n2)c1C	-7.7%	-14.8%
Cc1cc(C(=O)Nc2c(C)nn(Cc3ccc(F)cc3)c2C)on1	i	-16.3%
Cc1cc(C)cc(OCC(O)CN2CCC(CN3C(=O)c4cccc5cccc(c45)C3=O)CC2)c1 (stereo not drawn)	?	?
CCCN(Cc1cccs1)C(=O)Nc1ccccc1C	-3.3%	-1.4%
Cc1c(-c2ccccc2)c(-c2ccc(OCCN(C)C)cc2)n2ccccc12	i	-1.3%
CCOc1ccc(OCCn2ccnc2)cc1	-10.9%	-1.5%
N#Cc1c(-c2ccccc2)cc(-c2ccccc2)nc1SCCC(=O)O	-9.2%	-21.5%
Cc1cc(S(=O)(=O)NC2CCCCC2)ccc1-n1cnnn1	6.5%	1.4%
C#C[C@]1(O)CCC2C3CCC4=Cc5oncc5CC4(C)C3CCC21C (stereo partly drawn)	-3.0%	-22.7%
Cc1cc(=O)[nH]c(N/N=C/C(C)c2ccccc2)n1 (stereo not drawn)	-11.6%	5.3%
O=C(CCC1CCCCC1)Nc1cccc(C(=O)Nc2ccc(C(=O)O)cc2)c1	i	2.4%
CC(C)(C)c1ccc(C(=O)NC(Cc2c[nH]c3ccccc23)C(=O)OCC(=O)c2ccc(Cl)cc2)cc1 (stereo not drawn)	-4.3%	-15.3%
O=C(COc1coc(CN2CCN(c3ccc(F)cc3)CC2)cc1=O)NC1CCCC1	-23.1%	-16.9%
COc1ccc(C2CC(=O)Oc3ccc(C(C)(C)C)cc32)cc1 (stereo not drawn)	i	-15.0%
CCOc1nc(-c2ccc(Cl)cc2)nc2ccccc12	-11.7%	-1.4%
CSCCC(c1nnnn1C(C)(C)C)N1CCC2(CC1)C(=O)NCN2c1ccccc1 (stereo not drawn)	i	-9.5%
COc1cccc(OCC(O)CN2CCN(C)CC2)c1 (stereo not drawn)	-10.1%	-5.9%
COc1ccc(NC(=O)CSc2n[nH]c(-c3ccncc3)n2)cc1Cl	-13.0%	-4.3%
COc1ccc(S(=O)(=O)Nc2c3ccccc3nc(=O)n2-c2ccccc2)cc1	-8.6%	2.2%
O=C(Nc1cccc(S(=O)(=O)Nc2ccccc2F)c1)c1ccco1	-3.3%	6.1%
N=c1c(C(=O)NC2CCCCC2)cc2c(=O)n3ccccc3nc2n1Cc1ccco1	-11.2%	4.5%
COc1cccc(NC(=S)N2CCN(S(C)(=O)=O)CC2)c1	i	-1.6%

Quoted at random: 7 entries already listed
SMILES	VACV mCherry inh	Vaccinia Venus
COc1ccc(NC(=O)CSc2n[nH]c(-c3ccncc3)n2)cc1Cl	-13.0%	-4.3%
COc1cccc(NC(=S)N2CCN(S(C)(=O)=O)CC2)c1	i	-1.6%
COc1ccc(C2CC(=O)Oc3ccc(C(C)(C)C)cc32)cc1 (stereo not drawn)	i	-15.0%
O=C(Nc1cccc(S(=O)(=O)Nc2ccccc2F)c1)c1ccco1	-3.3%	6.1%
CSCCC(c1nnnn1C(C)(C)C)N1CCC2(CC1)C(=O)NCN2c1ccccc1 (stereo not drawn)	i	-9.5%
COc1cccc(OCC(O)CN2CCN(C)CC2)c1 (stereo not drawn)	-10.1%	-5.9%
COc1ccc(S(=O)(=O)Nc2c3ccccc3nc(=O)n2-c2ccccc2)cc1	-8.6%	2.2%

Random draw from the library (roughly 0.88% active in at least one column).
